# Rab9 prom act: qHTS Assay for Rab9 Promoter Activators; Potency, µM (series often up to 9.22 µM), inactives show top-dose activation, negative = inhibition, usual class: activators; Huh7 Rab9 promoter-luciferase reporter, luminescence, 24 h; 320,000 tested, 2.8% active; AID 485297, 2010; further: potency means the concentration at half of the fitted maximal effect; % of control where 0% means no effect; nearly all actives have a fitted effect of over 60% in size
#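 Luminescence from Amplite-detected luciferase (10 minutes, ambient) reports Rab9 promoter activation. Before that, stable Rab9-luciferase Huh7 cells (1500/well, reduced-serum OP-MEM I plus 10% FBS) were exposed to compound for 24 hours at 37C.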
# VP16 counter: VP16 counterscreen qHTS for inhibitors of ROR gamma transcriptional activity; Drosophila S2 Gal4-VP16 UAS-luciferase, luminescence, 20 h; Potency, µM (series often up to 53.6 µM), for inactives: at the top dose activity, negative = inhibition, hits mostly inhibitors; 310,000 tested, 3.5% active;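 further: Gal4-VP16 expression switched on by copper sulfate through the metallothionein promoter; potency means the concentration at half of the fitted maximal effect; on the % scale 0 is the no-effect control and ±100 the full control effect; nearly all actives have a fitted effect of over 50% in size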
# p53 reactivation: qHTS assay for re-activators of p53 using a Luc reporter | H1299 p53-A138V BP100-luciferase reporter, luminescence, 24 h | Potency, µM (doses to about 92.2 µM), for inactives: at the highest dose activity change, positive = activation, most hits filed as activators | 320,000 tested, 0.063% active; further: potency means the concentration at half of the fitted maximal effect; % of control where 0% means no effect; nearly all actives have a fitted effect of over 45% in size
#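 H1299 (p53-null), stable ts p53-A138V + BP100-Luc; 1000 cells/well, Opti-MEM/10% FBS; cpd 4 pt, 1:5; 24 h, 37 deg C, 5% CO2; detection reagent 10 min RT; luminescence.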
# FLuc counter: qHTS profiling assay for firefly luciferase inhibitor/activator using purifed enzyme and Km concentrations of substrates (counterscreen for miR-21 project). purified FLuc, Km substrates, luminescence inhibition. AID 588342, 2011. 360,000 tested, 6.9% active. Luciferin 4-monooxygenase (Photinus pyralis), P08659. Potency, µM (top dose mostly 57.5 µM), without a hit: at the top dose activity change, negative = inhibition, usual class: inhibitors;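 further: potency means the concentration at half of the fitted maximal effect; plate controls were vehicle for no effect and reference inhibitor for full effect; nearly all actives have a fitted effect of over 55% in size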
# Target sequence (P08659 whole entry, looked up): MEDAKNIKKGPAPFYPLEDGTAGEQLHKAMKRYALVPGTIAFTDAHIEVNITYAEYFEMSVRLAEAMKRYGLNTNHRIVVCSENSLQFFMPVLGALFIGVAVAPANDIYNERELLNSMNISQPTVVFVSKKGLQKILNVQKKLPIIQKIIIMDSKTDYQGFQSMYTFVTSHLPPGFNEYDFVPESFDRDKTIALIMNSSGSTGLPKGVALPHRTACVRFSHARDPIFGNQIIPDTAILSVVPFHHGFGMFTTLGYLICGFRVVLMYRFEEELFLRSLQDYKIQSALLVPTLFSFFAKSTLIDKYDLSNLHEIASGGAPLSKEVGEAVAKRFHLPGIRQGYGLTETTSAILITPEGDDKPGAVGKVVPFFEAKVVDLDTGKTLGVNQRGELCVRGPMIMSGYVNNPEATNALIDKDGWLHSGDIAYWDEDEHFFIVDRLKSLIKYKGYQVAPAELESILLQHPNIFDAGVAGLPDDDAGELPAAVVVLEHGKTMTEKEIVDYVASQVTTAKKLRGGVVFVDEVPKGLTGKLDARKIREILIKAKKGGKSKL
#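 Purified P. pyralis luciferase (10nM final) with 10uM D-luciferin and 10uM ATP (Km levels) in 50mM Tris acetate pH 7.5, 10mM Mg acetate, 0.01% Tween-20, 0.05% BSA; qHTS 6-point titration, ~60 µM downward; luminescence read.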
# PKM2 act: qHTS Assay for Activators of Human Muscle isoform 2 Pyruvate Kinase; Pyruvate kinase PKM (Homo sapiens), P14618; purified PKM2, Kinase-Glo ATP luminescence, activation; response scale: 0% is enzyme alone, no compound; Potency, µM (series often up to 57.5 µM), for inactives: top-dose activation, actives largely listed as activators; 260,000 tested, 0.34% active; AID 1631, 2009; further: potency means the concentration at half of the fitted maximal effect; on the % scale 0 is the no-effect control and ±100 the full control effect; nearly all actives have a fitted effect of over 55% in size
# Target sequence (P14618 whole entry, looked up, canonical isoform): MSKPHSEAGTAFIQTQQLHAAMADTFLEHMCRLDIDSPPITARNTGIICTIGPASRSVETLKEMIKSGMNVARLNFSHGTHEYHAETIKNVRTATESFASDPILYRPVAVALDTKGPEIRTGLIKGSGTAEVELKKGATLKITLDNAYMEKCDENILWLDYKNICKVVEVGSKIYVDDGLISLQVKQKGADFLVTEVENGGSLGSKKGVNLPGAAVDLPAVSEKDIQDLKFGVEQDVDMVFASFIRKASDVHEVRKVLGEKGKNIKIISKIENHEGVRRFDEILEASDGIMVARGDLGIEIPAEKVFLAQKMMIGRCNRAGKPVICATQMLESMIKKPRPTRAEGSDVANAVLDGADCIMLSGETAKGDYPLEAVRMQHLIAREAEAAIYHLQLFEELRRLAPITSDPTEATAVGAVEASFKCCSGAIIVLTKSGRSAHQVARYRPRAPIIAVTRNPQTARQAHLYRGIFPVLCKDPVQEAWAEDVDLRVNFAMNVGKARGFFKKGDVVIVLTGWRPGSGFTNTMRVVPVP
#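 ATP formation by purified human PK-M2, quantified via coupled luciferase luminescence after 1 h at room temperature with 0.1 mM ADP and 0.5 mM PEP final.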
# RORgamma inh: qHTS for inhibitors of ROR gamma transcriptional activity; Potency, µM (top dose mostly 53.6 µM), for inactives: at the highest dose activity change, negative = inhibition, most hits filed as inhibitors; AID 2551, 2010; 310,000 tested, 5.4% active; Nuclear receptor ROR-gamma (Mus musculus), P51450; Drosophila S2 Gal4-RORgamma UAS-luciferase reporter, 20 h; further: potency means the concentration at half of the fitted maximal effect; on the % scale 0 is the no-effect control and ±100 the full control effect; nearly all actives have a fitted effect of over 60% in size
#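 Stably transfected Drosophila Schneider cells are the test system, with ROR gamma fused to Gal4 and luciferase under UAS control; luminescence is read after 20 hr of 700 uM copper sulfate induction at ambient temperature.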
# Giardia killer: Small Molecules that selectively kill Giardia lamblia: qHTS. Giardia lamblia trophozoite viability. activity change, % at 7.66 µM, hits read low. 340,000 tested, 0.15% active. AID 540267, 2011; in the data active means activity change below about -80%; inconclusive means between about -30% and that limit;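 further: parasites exposed to compound for two days anaerobically before the ATP read; on the % scale 0 is the no-effect control and ±100 the full control effect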
#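 Each well holds 100 Giardia trophozoites and compound. After two days (48 hrs) at 37 deg C in anaerobic conditions, ATP is quantified by luminescence.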
# ELG1 genotox: qHTS screen for small molecules that induce genotoxicity in human embryonic kidney (HEK293T) cells expressing luciferase-tagged ELG1. HEK293T ELG1-luciferase reporter, luminescence, 16 h. Potency, µM (highest dose often 46 µM), for inactives: top-dose activity change, positive = activation, actives largely listed as activators. 330,000 tested, 1.3% active; further: potency means the concentration at half of the fitted maximal effect; % of control where 0% means no effect; nearly all actives have a fitted effect of over 60% in size
#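 Luminescence read-out: rising ELG1-luciferase signal, reflecting elevated ELG1 protein under genetic stress, flags genotoxic compounds. Cells were treated for 16 hr at 37 °C before ONE-Glo detection.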
# NPC1 prom act: qHTS Assay for NPC1 Promoter Activators. AID 485313, 2010. Huh7 NPC1 promoter luciferase reporter, 24 h. Potency, µM (titrated, usually from 9.22 µM), for the others: top-dose activation, most hits filed as activators. 320,000 tested, 2.4% active;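 further: potency means the concentration at half of the fitted maximal effect; % of control where 0% means no effect; nearly all actives have a fitted effect of over 60% in size; reporter is driven by a mutant NPC1 promoter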
#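 Stably transfected Huh7 (NPC1 promoter→luciferase), 1500 cells/well in Opti-MEM + 10% FBS, 2 h settle, then compound 24 h at 37 °C. Luminescence after 10 min with Amplite reagent.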
# BRCA1 expr act: qHTS Assay to Identify Small Molecule Activators of BRCA1 Expression; MCF7-BRCA1-FFLuc reporter, luminescence, 48 h; response scale: scaled: vehicle 0%, 10 µM genistein 100%; Potency, µM (top dose mostly 46.1 µM), for inactives: top-dose activation, hits mostly activators; 380,000 tested, 1.1% active; further: potency means the concentration at half of the fitted maximal effect; nearly all actives have a fitted effect of over 80% in size; some results filed as inactive show a strong effect at the top dose
#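 Luminescence from a BRCA1-driven firefly luciferase in MCF7 cells was the read-out, taken 15 min after substrate addition following 48 h compound exposure at 37 °C. Data were normalized to a 10 microM genistein control and DMSO vehicle.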
# Starred values were filed as active, the others as inactive; ? = inconclusive; . = not tested or not shown; & = joins results of further samples; [ ] = another dose, or the depositor's remark. Unless noted, the call rests on the fitted dose curve; in most records, active means well fitted curve in the direction sought with a large enough effect; inconclusive means small, poorly fitted or top-dose-only effect, or another doubt; inactive means no such curve, though single readings can be large; an effect the other way counts as inactive or inconclusive.
SMILES,Rab9 prom act,VP16 counter,p53 reactivation,FLuc counter,PKM2 act,RORgamma inh,Giardia killer,ELG1 genotox,NPC1 prom act,BRCA1 expr act
COC(=O)CCN(C(=O)C1C2CC3CC(C2)CC1C3)c1ccccn1 (centres undefined),5%,-4%,-4%,0%,2%,-8%[10 µM],-5,0%,-2%,-3%
COc1ccc(S(=O)(=O)N2CCN(C(=O)[C@@H]3CCC(=O)N3C3OC(=O)c4ccccc43)CC2)cc1 (some centres undefined),5%,2%,0%,0%,16%,-16%,-2,2%,1%,0%
COc1ccc(Nc2nc(-c3ccccc3)c(C(=O)Nc3cccnc3)s2)cc1,-2%,10%,-3%,?,3%,?,-14,-6%,-1%,5%
CN1C(=O)N(C)C2C1N(C)S(=O)(=O)N2C (centres undefined),-1%,-5%,3%,3%,2%,-10%,-4,10%,0%,-7%
CCCCn1c(=N)n(CC(=O)c2ccco2)c2ccccc21,5%,-11%,-3%,0%,-2%,-30%,-1,-9%,-6%,-5%
COCCNC(=O)c1onc(CCl)c1C(=O)OC,0%,-7%,-13%,-2%,-6%,-30%,-12,2%,-1%,-23%
COc1cc(/C=N/O)cc(Br)c1OCc1cccc(Cl)c1,9%,11µM*,-20%,?,0%,10µM*,-7,3%,11%,-41%
CCC(C)NC(=O)c1c(N)n(/N=C/c2cccs2)c2nc3ccccc3nc12 (centres undefined),-19%,-22%,-2%,3µM*,0%,10µM*,.,-7%,-17%,.
CCC1CCCCN1CCCn1c(=S)[nH]c2ccccc2c1=O (centres undefined),-9%,-15%,1%,4%,-3%,?,35[activator],1%,0%,-10%
Fc1ccccc1/C=N/Nc1nc2ccccc2o1,2.2µM*,11µM*,?,3µM*,.,6.3µM*,-7,?,2.8µM*,?
O=C(Nc1ccccc1)C1=C(O)CC(c2ccoc2)CC1=Nc1ccccc1 (centres undefined),3%,.,10%,1%,11%,19%[0.365 µM],-6,-1%,0%,2%
CCCN1CCc2c(sc(NC(=S)NC(=O)c3ccccc3)c2C#N)C1,18%,-9%[10 µM],?,?,-4%,8%,16,-14%,29%,55%
CCOc1cc(/C=N/NC(=O)c2ccc(O)cc2)ccc1Oc1nc(Cl)ncc1F,1%,-5%,7%,-17%,0%,?,2,-12%,-1%,4%
CC(=O)/C(=N\Nc1ccccc1Cl)Sc1cccc2cccnc12,2%,4.5µM*,-6%,0%,-7%,2.8µM*,7,5%,0%,-30%
CCCNC(=O)c1ccc2c(c1)CCN2S(C)(=O)=O,0%,-12%,13%,-1%,-15%,-3%,-6,3%,-2%,5%
Cc1ccc(C2=NN(CC(=O)NCCN(CC(C)C)CC(C)C)C(=O)CC2)cc1,0%,?,1%,3%&-1%,.,34%,24,-5%,-1%,1%
Cc1cccc(C)c1NC(=O)C1CCCN1S(=O)(=O)c1ccccc1 (centres undefined),0%,2%,-6%,-2%&0%,0%,-4%,2,-3%,-2%,-10%
Cc1cc(C)cc(OC(C)C(=O)Nc2ccc3c(c2)n(C)c(=O)n3C)c1 (centres undefined),2%,9%,-2%,-4%,-12%,?,0,6%,0%,-4%
CCC(=O)c1ccccc1OCCN1CCN(Cc2ccccc2)CC1,-7%,2%,-5%,-9%,0%,8%,-12,-8%,-5%,-6%
C=CCN1C(=O)N/C(=C/c2ccc(C)o2)C1=O,-5%,5µM*,1%,-5%,?,5.6µM*,-17,2%,-2%,13%

# Reformatted with values under each structure: part of the list above.
# Every second line gives: Rab9 prom act | VP16 counter | p53 reactivation | FLuc counter | PKM2 act | RORgamma inh | Giardia killer | ELG1 genotox | NPC1 prom act | BRCA1 expr act
- CCOc1cc(/C=N/NC(=O)c2ccc(O)cc2)ccc1Oc1nc(Cl)ncc1F
    1% | -5% | 7% | -17% | 0% | ? | 2 | -12% | -1% | 4%
- CCC(=O)c1ccccc1OCCN1CCN(Cc2ccccc2)CC1
    -7% | 2% | -5% | -9% | 0% | 8% | -12 | -8% | -5% | -6%
- CCCN1CCc2c(sc(NC(=S)NC(=O)c3ccccc3)c2C#N)C1
    18% | -9%[10 µM] | ? | ? | -4% | 8% | 16 | -14% | 29% | 55%
- O=C(Nc1ccccc1)C1=C(O)CC(c2ccoc2)CC1=Nc1ccccc1 (centres undefined)
    3% | . | 10% | 1% | 11% | 19%[0.365 µM] | -6 | -1% | 0% | 2%

# Next records follow:
SMILES,Rab9 prom act,VP16 counter,p53 reactivation,FLuc counter,PKM2 act,RORgamma inh,Giardia killer,ELG1 genotox,NPC1 prom act,BRCA1 expr act
CC(=C/c1ccco1)/C=N/NC(=O)CSc1nnc(SCc2ccc(C)cc2)s1,-4%,?,-11%,2.7µM*,17%,?,-16,3%,0%,-54%
CCn1c(C)c(C(C)=O)cc(C#N)c1=O,-2%,3%[10 µM],-2%,1%,-14%,0%,11,11%,-1%,-3%
CCOC(=O)c1cc(C#N)c(Oc2ccccc2)nc1-c1ccccc1,-2%,1%,1%,-37%,0%,19%,10,-4%,-4%,-53%
CCOC(=O)CCCNC(=O)COC(=O)CCC(=O)c1ccc(F)cc1,12%,1%,-7%,5%,-4%,5%,-1,0%,-2%,0%
O=C(NC(=S)Nc1cccc(NC(=S)NC(=O)c2ccco2)n1)c1ccco1,2%,0.79µM*,-1%,-4%,1%,0.089µM*,-14,4%,1%,0%
C/C(=N\NC(=O)c1ccc([N+](=O)[O-])cc1)c1c(O)cc(C)oc1=O,-4%,?,7%,?,2%,0.63µM*,-2,6%,0%,-5%
Cc1no[n+]([O-])c1COc1ccc(/C=N/n2nnnc2N)cc1,3%,4%,12%,0%,0%,?,-2,7%,-2%,-4%
CN1C(=O)[C@H]2[C@@H](C3CC3)N3C(=O)CN(CCO)C(=O)[C@@]3(Cc3ccccc3)[C@H]2C1=O,-2%,6%,.,5%,-4%,-8%,-23,0%,-1%,-1%
Cn1c2ccc(F)cc2c2nnc(SCCN3CCCCC3)nc21,2%,0%,1%,4%&-7%,.,-15%,1,?,2%,-27%&-24%
O=C(CCc1ccccc1)NC(NC(=S)Nc1ccc(Cl)cc1)C(Cl)(Cl)Cl (centres undefined),-2%,?,2%,2%,0%,-30%,-1,-15%,-4%,-72%
O=C(COc1ncnc2ccccc12)c1ccc2c(c1)OCCO2,1.1µM*,-40%,?,4.8µM*,6%,-24%,-10,?,1.1µM*,?
COc1ccc(CCNC(=O)CSc2nc3[nH]ncc3c(=O)n2-c2ccc(C)c(Cl)c2)cc1OC,?,-12%,11%,5%,3%,?,3,?,?,-4%
COCCCNC(=O)c1ccc2c(c1)CCN2S(C)(=O)=O,.,19%,.,2%,-2%,3%,5,.,.,-2%
CCN(C(=O)CSc1ccc2ccccc2c1)C1CCS(=O)(=O)C1 (centres undefined),0%,-10%,-4%,-20%,-1%,-3%,1,1%,-3%,-5%
O=C(NCC1CCCO1)C1CC(=O)N(c2ccc(Cl)cc2)C1 (centres undefined),-4%,1%,6%,-1%,1%,18%,26,-3%,3%,0%
O=C(N/N=C/c1ccc(OC(=O)c2ccc3c(c2)OCO3)cc1)c1cncc(Br)c1,13%,18%,-12%,2%,0%,0%,4,5%,23%,19%
CCCc1cc(=O)oc2cc(OCC(=O)Nc3ccc4c(c3)OCCO4)ccc12,9%,1%,4%,0%,0%,-16%,0,2%,9%,-1%
Cc1cc(C)c(N=C2C(=O)Nc3ccccc32)c(C)c1,3%,-2%,9%,0%,.,-33%,34[activator],-2%,-3%,-11%
CCOC(=O)c1nc2cc3n(c(CC(C)C)c-2c1C)CC(C)=C3C,1%,-4%,-1%,?,-4%,?,1,-8%,-1%,-29%
O=C(Nc1ccccc1)C1CCCN1S(=O)(=O)c1ccc(Br)cc1 (centres undefined),0%,2%,-17%,2%,-1%,-34%,18,-6%,-4%,2%
CCOc1ccc(NC(=O)C2CC(=O)NC(N3CCc4ccccc43)=N2)cc1 (centres undefined),-4%,-6%,3%,0%,-3%,1%,-27,6%,3%,-16%
O=C(c1ccccc1Cl)N(C(=O)c1ccccc1Cl)c1nccc(-c2cccs2)n1,7%,5%[0.365 µM],-9%,-2%,-18%,-39%,-6,?,8%,-9%
CCc1cc(-c2[nH]ncc2-c2ccc([N+](=O)[O-])cc2)c(O)cc1OC,-10%,20µM*,7%,-2%,.,13µM*,2,-4%,0%,-50%
COc1cc2c(cc1OC)CN(C(=O)COc1ccc(C)c(C)c1)CC2,-2%,1%,-8%,1%,0%,14%,-12,0%,-3%,-4%
O=C(NCC1CCCO1)C1CC(=O)N(c2ccccc2)C1 (centres undefined),2%,0%,-4%,0%,-6%,-13%,-13,3%,-1%,-1%
COc1ccc(CC(=O)Nc2ccc(-c3noc(COc4ccccc4C)n3)cc2)cc1,-3%,?,0%,11%,-1%,?,-12,6%,-1%,0%

# This is a subset; count on the stated rates, not on these rows.
